CSC inhib: cancer stem cell viability inhibitors, primary screen, luminescence | cancer stem cell-like cells viability | 300,000 tested, 1.1% active | inhibition, % at 7.5 µM;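 active = mean at 75% or more and at least half the replicates too; inconclusive = mean and replicates disagree; tested in HMLE shEcad cells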;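 note: 0% = median of negative and 100% = median of positive control wells; the first replicate is given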
PABP FP inh: PABP poly(A) RNA binding inhibitors, primary screen, biochemical, fluorescence polarization, uHTS; Polyadenylate-binding protein 1 (Homo sapiens), P11940; inhibition, % at 35 µM; 290,000 tested, 1% active; AID 2014, 2009;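 active = 50% or more with normal probe brightness, or confirmed in later tests; inconclusive = above 50% with abnormal brightness, or retests that disagree; inactive = below 50% or failed in later tests; about a fifth of its hits are not listed in these tables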;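 note: calls also rest on retests at 20 µM and on dose response follow-up; controls were probe without protein and protein plus probe with vehicle; some compounds called inactive have numbers as strong as hits; many hits fall short of the cut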
Target sequence (P11940 whole entry, looked up): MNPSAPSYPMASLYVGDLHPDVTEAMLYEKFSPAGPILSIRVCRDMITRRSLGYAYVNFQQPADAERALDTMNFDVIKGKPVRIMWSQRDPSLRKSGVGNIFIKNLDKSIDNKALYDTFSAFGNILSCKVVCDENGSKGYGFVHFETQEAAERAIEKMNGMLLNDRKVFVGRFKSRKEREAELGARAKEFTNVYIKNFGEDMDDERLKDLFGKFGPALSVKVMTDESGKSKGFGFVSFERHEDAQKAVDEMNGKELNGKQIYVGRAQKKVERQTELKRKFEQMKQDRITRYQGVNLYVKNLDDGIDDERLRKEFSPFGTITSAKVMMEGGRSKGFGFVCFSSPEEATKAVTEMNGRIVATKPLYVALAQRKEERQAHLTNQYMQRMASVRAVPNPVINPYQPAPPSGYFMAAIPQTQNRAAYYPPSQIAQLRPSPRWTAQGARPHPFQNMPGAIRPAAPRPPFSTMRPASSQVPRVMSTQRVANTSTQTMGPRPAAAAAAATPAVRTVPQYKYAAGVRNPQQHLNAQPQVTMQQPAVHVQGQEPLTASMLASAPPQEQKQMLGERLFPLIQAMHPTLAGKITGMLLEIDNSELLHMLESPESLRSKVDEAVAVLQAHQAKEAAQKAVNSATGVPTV
eIF4H FP inh: human eIF4H binding inhibitors, primary screen, translation initiation inhibitor project, biochemical, uHTS, fluorescence polarization; Eukaryotic translation initiation factor 4H (Homo sapiens), Q15056; AID 2012, 2009; inhibition, % at 35 µM; 290,000 tested, 0.94% active; eIF4H fluorescence polarization binding assay;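 active = 50% or more with normal probe brightness, or confirmed in later tests; inconclusive = above 50% with abnormal brightness, or retests that disagree; inactive = below 50% or failed in later tests; about a fifth of its hits are not listed in these tables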;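 note: calls also rest on retests at 20 µM and on dose response follow-up; 0% = protein and probe with vehicle and 100% = probe without protein; strong numbers were not always called active; many hits fall short of the cut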
Yeast UUG start: modulators of yeast start codon fidelity, primary screen, whole organism, S. cerevisiae, single point, plate reader. 350,000 tested, 0.13% active. AID 602363, 2012. S. cerevisiae UUG-firefly luciferase reporter, luminescence/redox ratio. activity score, % at 18.7 µM;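 active = replicate mean at a twofold rise or more, about +100% in these data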;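 note: firefly luciferase made from a UUG start codon reports start codon fidelity; reporter light over untreated wells divided by growth signal over untreated wells; some hits fall short of that in this replicate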
Rce1 inh: yeast Rce1p protease inhibitors, primary screen, biochemical, fluorescence, cell-free homogeneous. AID 2563, 2010. calls only. CAAX prenyl protease 2 (Saccharomyces cerevisiae (strain ATCC 204508 / S288c)), Q03530. yeast membranes, quenched prenylated peptide cleavage fluorescence. 290,000 tested, 0.27% active;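 active = fall in fluorescence gain of 50% or more versus controls, with final raw signal at or below 3038400; inconclusive = same 50% fall but final raw signal above 3038400; inactive = fall in fluorescence gain under 50%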;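 note: plate controls were neutral control wells for no effect and wells lacking membranes for full effect; tested at 10 µM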
MT1-MMP act inh: blockers of MT1-MMP proenzyme processing, primary screen, HT1080 RFP-PRO-GFP cells, GFP/RFP fluorescence. Matrix metalloproteinase-14 (Homo sapiens), P50281. GFP/RFP ratio fluorescence, overnight; percent of plate control window, DMSO zero. GFP/RFP ratio change, % at 20 µM. 360,000 tested, 0.061% active;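 active = GFP/RFP ratio change of at least 30% with cell ATP level not reduced by more than half and red fluorescence within 50% of control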; note: strong numbers were not always called active
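Assay system – RFP-PRO-GFP reporter HT1080 cells · Compound dosing – single dose of 20 µM compound, 1% DMSO final · Incubation – overnight compound exposure at 37 °C · Measure – GFP/RFP fluorescence ratio · Benchmarks – DMSO wells and RFP-L50D-GFP cells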
Env fusion inh: inhibitors of HIV-1 Env-driven cell-cell fusion, primary screen, HeLa-JRFL effector, CEM21 target cells, luciferase; inhibition, % at 12.3 µM; 360,000 tested, 1.1% active;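 active = mean replicate inhibition score of at least 50 and every replicate individually at or above 50; inconclusive = only one of the two criteria met; inactive = mean below 50 and not all replicates reaching 50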;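 note: 0% = plate neutral controls and 100% = maraviroc near 300 nM; one replicate is shown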
MT1-MMP act inh RFP: further read-out of MT1-MMP act inh, marked with its call; RFP signal change, %; measured here: RFP expression control read;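 0 = vehicle wells; hits needed this value within 50% of zero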
The depositor's hits bear a star; i = inactive; ? = inconclusive; nt = no result given; + = active, no number. An excerpt (hit frequency here may not be typical).

smiles	CSC inhib	PABP FP inh	eIF4H FP inh	Yeast UUG start	Rce1 inh	MT1-MMP act inh	MT1-MMP act inh RFP	Env fusion inh
COc1ccc(-n2c(C)cc(/C=C3\C(=O)NN(c4ccccc4)C3=O)c2C)cc1	-11	10	10	-18	i	-3	-5	nt
CC(=O)c1c(C)[nH]c(C(=O)Nc2ccc(C)c(C)c2)c1C	-5	6	-1	-17	i	9	-3	-163
CC1CN(C(C)C)C(C)CC1OC(=O)c1ccccc1 (stereo not drawn)	4	8	3	1	i	5	6	-8
N#Cc1ccccc1NC(=O)COC(=O)CCc1ccc(S(=O)(=O)N2CCCCC2)cc1	2	4	7	nt	i	2	4	4
CC(C)(C)N1CCC1CN (stereo not drawn)	nt	-8	6	-19	nt	-4	0	4
COc1ccccc1CC(=O)Nc1ccc2c(c1)C(=O)NC2=O	-11	-3	1	nt	nt	0	2	18
CCN(CC)CCCNC(=O)c1[nH]c(C)c(C(=O)NC2CCCCC2)c1C	1	6	1	5	i	-2	0	-72
Cc1cc(C)n(CCCNC(=O)c2ccc(C)c(S(=O)(=O)N3CCOCC3)c2)n1	-6	nt	nt	nt	i	-1	-1	nt
CCOC(=O)c1c(C2COc3ccccc3O2)csc1NC(=O)c1ccccc1 (stereo not drawn)	-5	-1	-1	-13	+	1	-7	-22
CCOc1ccc(S(=O)(=O)N(C)CC(=O)NCc2ccc3c(c2)OCO3)cc1	nt	2	-4	-19	i	-2	-3	12
Nc1cc(=O)[nH]c(SCC(=O)N2CCCC2)n1	9	nt	nt	23	nt	0	1	nt
Cc1ccccc1Oc1ccc(-c2nc(N)nc(N)n2)cc1	-2	-5	-14	-17	i	1	-2	-27
O=C(O)c1ccc(NC(=O)c2ccccc2NC(=O)c2ccccc2Br)cc1	-7	6	-14	-5	i	2	-1	-3
COc1ccc(NC(=O)C(CCS(C)(=O)=O)NC(C)=O)cc1 (stereo not drawn)	-5	11	-2	-10	i	-1	3	nt
CC1CCN(C(=O)Oc2ccccc2)CC1	12	-3	1	1	i	3	8	-1
COCc1cc(C)nc(N/N=C/c2ccc(Cl)c(Cl)c2)c1C#N	nt	-7	1	nt	nt	-3	2	-36
O=C(OCC(=O)N1CCN(C(=O)c2ccco2)CC1)c1sc2ccccc2c1Cl	-7	5	-11	-14	i	3	1	nt
CC(C)CCN1CCN(Cc2cn[nH]c2C2CCCCC2)CC1CCO (stereo not drawn)	-3	9	2	-14	i	0	2	0
COc1ccc(CN2CCOCCOCCOCCOCC2)cc1	-21	-6	2	nt	i	0	2	-6
Cc1cscc1-c1ccc(C(=O)Nc2c(C)cccc2C)o1	nt	nt	nt	-11	nt	-4	-15	9
CC1CCCN(C(=O)c2cc3c(-c4ccc(Cl)cc4)nn(C)c3s2)C1 (stereo not drawn)	-4	-2	-2	-8	i	-7	-6	9
O=C(Nc1ccnn1C1CCN(C(=O)c2cc(Cl)ccc2F)CC1)C1CCOC1 (stereo not drawn)	-2	2	-11	-24	i	4	4	-11
O=S(=O)(c1ccc(OCC(O)CNC23CC4CC(CC(C4)C2)C3)c(Cl)c1)N1CCOCC1 (stereo not drawn)	2	6	-7	5	i	-7	-5	-3
Fc1ccc(C2CC(c3ccco3)=NN2c2ccccc2)cc1 (stereo not drawn)	-5	-10	5	-10	i	4	-5	-24
OC(C#Cc1ccccn1)c1cccs1 (stereo not drawn)	-4	32	46	nt	i	-18	14	nt
Clc1ccc(CNC2CCN(Cc3ccccc3)CC2)cc1	37	19	2	-4	i	4	3	11
CNC(=O)COc1ncnc2sc(C)c(C)c12	1	-5	11	nt	i	4	9	nt
O=C(Nc1ccccc1C(=O)NCCc1ccccc1)c1ccco1	nt	5	-2	nt	i	-3	-1	nt
Cc1cccc(NC(=O)C2CCCN(S(=O)(=O)c3ccc4c(c3)oc(=O)n4C)C2)c1 (stereo not drawn)	-12	-4	4	1	i	-3	-4	-2
CNC(=O)COC(=O)/C=C/c1ccco1	-10	-3	?	nt	i	1	8	2
Cc1cc(NC(=O)CSc2cn(CCNC(=O)c3ccc(F)cc3)c3ccccc23)no1	5	10	3	-12	nt	-4	-6	38
CCOC(=O)C1=C(C)NC2=C(C(=O)CC(C)(C)C2)C1c1cccc(C)n1 (stereo not drawn)	nt	-15	6	-5	i	6	5	-46
COCCNc1nc(NCc2cccs2)nc2ccsc12	nt	nt	nt	-12	nt	3	-7	18
CC(C)C(NC(=O)c1ccc(F)cc1)C(=O)OCC(=O)N1CC(=O)Nc2ccccc21 (stereo not drawn)	-4	-4	-3	-14	i	0	2	nt
CCCCCCCCCC(=O)N/N=C/c1ccc(C)s1	18	2	-4	nt	i	1	1	-17
O=C(O)CCCC(=O)Nc1nc(-c2ccccc2)cs1	-2	-2	-3	1	i	0	2	nt
CCC1Oc2ccccc2N(CC(=O)NCCCN2CCCCC2C)C1=O (stereo not drawn)	10	-2	0	-8	i	2	8	nt
O=C(O)CCC(=O)Nc1ccc(C(=O)N2CCCCC2)cc1	-8	-5	-9	nt	i	2	1	-16
O=C(NCCc1ccc(F)cc1)c1coc(=O)c(Br)c1	43	-1	-3	-8	i	7	3	-357
Cc1ccc(S(=O)(=O)N(CC(O)CN2CCCCC2)c2cccc([N+](=O)[O-])c2)cc1 (stereo not drawn)	nt	-2	-4	-5	i	0	0	-3
CCc1ccccc1NC(=O)CN1CCN(CC(=O)Nc2ccc(-c3ccccc3)cc2)CC1	12	-12	-5	-12	i	-1	-5	-7
CC1(C)Cc2c(sc3c2c(=O)n(-c2ccc(Cl)cc2)c(=O)n3CC(N)=O)CO1	-11	-1	-4	-27	i	5	3	-10
CSc1nsc(SCC(=O)Nc2ccc(F)cc2F)n1	-16	10	9	-14	i	3	2	0
CCc1ccccc1NC(=O)CSc1nnc(CCNC(=O)OC(C)(C)C)o1	3	-8	-5	nt	i	-6	-7	4
Cn1c(=O)c2c(nc(CN3CCN(Cc4ccccc4)CC3)n2CCN2CCOCC2)n(C)c1=O	-8	-4	4	-17	i	9	65	-7
CC(C)OCCCn1c(-c2ccc(Br)cc2)c[nH]c1=S	-9	6	-2	nt	i	-4	-4	3
Cc1ccc(S(=O)(=O)Oc2cccc(/C=N/n3cnnc3)c2)cc1	nt	28	2	nt	i	16	-15	nt
O=C(CSc1nnc(CNC(=O)c2ccccc2)o1)NCc1ccccc1Cl	-6	20	2	-10	i	1	2	7
COCCCNC(=O)CCc1nc(-c2ccccc2)no1	-8	-11	1	-17	i	6	7	1
COc1ccc(CCNC(=O)c2ccc(OC)c(OC)c2)cc1OC	-7	2	0	-18	nt	1	-3	-3
O=C(NN1CC(C(=O)OCc2ccc(Cl)cc2Cl)CC1=O)c1ccccc1 (stereo not drawn)	-3	-2	-6	17	i	1	6	7
Cc1cc(OCC(=O)NCCc2ccc(S(N)(=O)=O)cc2)c2c(C)cc(=O)oc2c1	-11	4	-2	-12	i	-4	3	-2
O=C(COc1ccccc1)Nn1cnc2ccccc21	15	18	-11	-1	i	3	3	nt
NC(=O)c1ccccc1NC(=O)Nc1cccc(Cl)c1	nt	-3	6	-14	i	0	0	19
Cc1sc2ncnc(Sc3ccccc3C(=O)Nc3ccc(Br)cc3)c2c1C	-6	0	3	-5	i	-8	-3	19
N#Cc1c(N)nc(SCc2ccccc2)c(C#N)c1-c1ccco1	-19	-3	1	2	i	3	-4	nt

Other records
smiles	CSC inhib	PABP FP inh	eIF4H FP inh	Yeast UUG start	Rce1 inh	MT1-MMP act inh	MT1-MMP act inh RFP	Env fusion inh
CCOc1ccc(NC(=O)CN(C)C(=O)CCCc2nc3ccccc3c(=O)[nH]2)cc1OCC	-2	nt	nt	-16	i	-4	4	nt
COC(=O)/C(=C/c1cn(C(C)=O)c2ccccc12)[N+](=O)[O-]	nt	-4	2	-12	nt	-4	-2	15
CN1CCN(Cc2nc(Cc3cccc(F)c3)no2)CC1c1ccccc1 (stereo not drawn)	8	-1	-8	nt	i	-1	-1	1
Cc1ccn2c(=O)nc(SCC(=O)N3CCN(c4ccccc4)CC3)nc2c1	-9	nt	nt	-4	i	-1	4	-25
COc1ccc(Cc2nnc(SCc3ccc([N+](=O)[O-])cc3)o2)cc1	8	-15	-4	nt	i	-6	-3	16
Cc1ccccc1NC(=O)C1COc2ccccc2O1 (stereo not drawn)	-16	-5	-14	-4	i	-1	-3	2
O=C(CSc1ccc([N+](=O)[O-])cc1)Nc1nnc(C2CC2)s1	-13	nt	nt	-12	nt	7	4	-200
CN(C)CCCNC(=O)c1cc2c3ccccc3n(C)c2s1	24	-3	-10	-1	i	2	-1	-46
O=C(NCc1cccs1)c1cccnc1Cl	-2	-1	-2	-15	i	8	5	17
Cc1ccc(S(=O)(=O)NCCCNc2ccc([N+](=O)[O-])cc2)cc1	-8	10	-5	nt	i	-1	-7	22
Cc1cccc(NC(=O)CSc2n[nH]c(-c3ccncc3)n2)c1C	1	-4	-2	-13	i	0	2	3
O=C(O)C1C2C=CC3(CN(C4CCCC4)C(=O)C13)O2 (stereo not drawn)	nt	-6	-7	2	i	3	6	-5
CCc1nnc(NC(=O)c2cc(S(=O)(=O)N3CCN(c4ccccc4)CC3)ccc2Cl)s1	-2	-8	4	-12	i	2	-2	nt
C/C(CC(=O)NC(C)(C)C)=N\NC(=O)c1ccccc1N	3	2	8	nt	i	-1	4	7
COCCN(C(=O)COC(=O)CCn1c(C)csc1=O)c1c(N)n(Cc2ccccc2)c(=O)[nH]c1=O	11	nt	nt	1	i	0	1	-6
